CapD inh: blocks the Bacillus anthracis CapD enzyme; purified CapD enzyme, fluorescence intensity read-out; stronger effect = lower value; some hits fall short of the stated cut; z-score (test concentration not listed); hit rate 0.23% among 140,000; AID 492967;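 active = z-score under -4 in either of two replicates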;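 note: stock transfer was 100 nL into about 40 µL; score is relative to mean and spread of the plate; one replicate is shown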
AID504770: E. coli YBA685 growth inhibition, screen for V. cholerae RctB inhibitors. E. coli YBA685 rctB-dependent plasmid, OD600 growth, 3 h; stronger effect = lower value. z-score (no concentration beside the values). hit rate 0.27% among 130,000. AID 504770;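 active = z-score under -2 on both plates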;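 note: wells of about 30 µL received 100 nL stock; score is relative to mean and SD of the test wells; the first replicate is given; strong numbers were not always called active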
* marks the source's active call; other numbers are inactive results; x = not tested or not shown; & = joins results of further samples. These rows are one share of the data. The share of hits here may be higher or lower than overall.

The line under a structure holds: CapD inh | AID504770
N#Cc1ccc(-c2cccnc2)n(CC(=O)N2CCOCC2)c1=O
 : x | 1.1
Cc1cc(=O)oc2cc(OC(=O)c3cc4ccccc4o3)ccc12
 : 17 | 1.5
O=C(O)c1cc(Cl)c(Cl)cc1C(=O)Nc1ccc(Oc2ccccc2)cc1
 : -0.01 | -0.9
CC(C)NS(=O)(=O)c1ccc(OCC(=O)NCc2ccco2)cc1
 : -0.17 | -0.7
COc1ccc(C2CC(=O)C3=C(C2)Nc2ccccc2NC3c2ccc(Br)s2)cc1 (centres undefined)
 : -0.86 | x
O=C(Nc1ccc(N2CCCCC2)cc1)Nc1cccc(Cl)c1Cl
 : 0.15 | -0.45
CCCn1cc(/C=N/O)c(C)n1
 : -1 | 1.1
CC1CCCCN1C(=O)COCc1cc(-c2ccc3c(c2)OCO3)on1 (centres undefined)
 : 1.4 | 0.1
O=C1Nc2ncccc2OC1c1ccccc1 (centres undefined)
 : 0.28 | -0.1
Cc1nc(-c2ccc(S(=O)(=O)NCC3CC3)s2)cs1
 : 1.6 | 0.1

Ordered by number of heavy atoms (low to high): some entries from above
The line under a structure holds: CapD inh | AID504770
O=C1Nc2ncccc2OC1c1ccccc1 (centres undefined)
 : 0.28 | -0.1
Cc1cc(=O)oc2cc(OC(=O)c3cc4ccccc4o3)ccc12
 : 17 | 1.5
O=C(O)c1cc(Cl)c(Cl)cc1C(=O)Nc1ccc(Oc2ccccc2)cc1
 : -0.01 | -0.9

Some of the entries above, set out differently:
SMILES | CapD inh | AID504770
Cc1cc(=O)oc2cc(OC(=O)c3cc4ccccc4o3)ccc12 | 17 | 1.5
O=C(O)c1cc(Cl)c(Cl)cc1C(=O)Nc1ccc(Oc2ccccc2)cc1 | -0.01 | -0.9
O=C(Nc1ccc(N2CCCCC2)cc1)Nc1cccc(Cl)c1Cl | 0.15 | -0.45
N#Cc1ccc(-c2cccnc2)n(CC(=O)N2CCOCC2)c1=O | x | 1.1
O=C1Nc2ncccc2OC1c1ccccc1 (centres undefined) | 0.28 | -0.1
CC1CCCCN1C(=O)COCc1cc(-c2ccc3c(c2)OCO3)on1 (centres undefined) | 1.4 | 0.1
Cc1nc(-c2ccc(S(=O)(=O)NCC3CC3)s2)cs1 | 1.6 | 0.1

(cont.)
The line under a structure holds: CapD inh | AID504770
O=C(c1ccccc1)N1CCC(O)C2CCCCC21 (centres undefined)
 : -0.74 | -0.1
Cn1c(O)c(N=NC(=O)CCN2CCN(Cc3ccc4c(c3)OCO4)CC2)c2ccccc21
 : x | -0.5
CCc1[nH]nc2c1C(c1cc(OC)c(OC(C)=O)c(OC)c1)C(C#N)=C(N)O2 (centres undefined)
 : -0.61 | 0.35
Cc1cc(C)cc(NC(=O)Nc2ccc(N(C)C)cc2)c1
 : -0.48 | 1.5
Cc1onc(-c2c(F)cccc2Cl)c1C(=O)NC(=S)NC(N)=O
 : -0.24 | x
COC(=O)c1ccc(-c2c3c(nc4nc(N)[nH]c(=O)c24)-c2ccccc2C3=O)cc1
 : x | 0.1
O=C1C2C3C=CC(C3)C2C(=O)N1CCCCCCN1C(=O)C2C3C=CC(C3)C2C1=O (centres undefined)
 : 0.23 | x
CC1C(=O)N2CCCc3cc(S(=O)(=O)NCc4ccc(F)cc4)cc1c32 (centres undefined)
 : x | -0.2
N#C/C(C(=O)Nc1cc(C(F)(F)F)ccc1Cl)=C1\CCCN1
 : -0.42 | -0.65
Cc1ccc(S(=O)(=O)NNC2CS(=O)(=O)c3ccccc32)cc1 (centres undefined)
 : 0.39 | -0.85
Cc1nnsc1-c1n[nH]c(=S)n1C1CC1
 : -3.2 | 0.7
Cc1ccc2cc(C#N)c(SCC(=O)NCc3ccco3)nc2c1
 : x | -0.25
Cc1cc(C)cc(NC(=O)NCc2csc(-c3cccs3)n2)c1
 : 31 | 0.3
CC1CCCCN1C(=S)NC1CCCC1 (centres undefined)
 : 0.17 | -0.25
CC(C(=O)Nc1ccc2c(c1)OCCO2)n1nnc(-c2ccccc2)n1 (centres undefined)
 : 0.57 | -0.15
O=C(NCCn1ccc2ccccc21)c1c(F)cccc1F
 : 0.03 | -0.25
Cc1ccc(S(=O)(=O)/N=C2/NC(=O)/C(=C/c3ccncc3)S2)cc1
 : 0.38 | x
Cn1c(C(C#N)C(=O)CC23CC4CC(CC(C4)C2)C3)nc2ccccc21 (centres undefined)
 : x | 1.4
COC(=O)c1cn(-c2ccccc2)nc1N
 : 0.42 | -0.35
CCN(CC)C(=O)COc1cc(=O)n(CC)c2ccccc12
 : 59 | 0.25
Cc1sc2nc[nH]c(=S)c2c1C
 : x | -0.8&-1.5
Cc1sc2ncn(CC(=O)Nc3nc4ccccc4s3)c(=O)c2c1S(=O)(=O)N1CC(C)CC(C)C1 (centres undefined)
 : 0.35 | -0.65
COC(=O)C1(C#N)C(c2ccc(C)cc2C)C(C(=O)c2ccccc2)N2c3ccccc3C=CC21 (centres undefined)
 : 2.4 | -0.7
Cc1[nH]nc(-c2ccc(O)cc2O)c1Oc1ccc(C(C)C)cc1
 : x | -0.1
O=C(O)CCOc1ccccc1
 : 1.4 | 0.85
CSc1cccc(NC(=O)Cn2nc(SC)c(S(=O)(=O)c3ccccc3)c2N)c1
 : 0.1 | 0.3
COC(=O)C1C(c2ccc(Cl)cc2)C(C(=O)OC)S(=O)(=O)CS1(=O)=O (centres undefined)
 : 0.02 | -0.65
CCC(=O)c1cn(CC(=O)NC2CCCCC2)c2ccccc12
 : -0.095 | -0.5
Cc1c(C(=O)NCCC(C)C)oc2ccc(S(=O)(=O)N3CCC4(CC3)OCCO4)cc12
 : -0.32 | 0.9
CC(=O)Nc1cscc1S(=O)(=O)c1ccccc1
 : -0.095 | -1.2
CCN(C(=O)c1ccccc1)c1cccc2ccccc12
 : -1.1 | -0.05
CCOC(=O)CN1C(=O)C2CC=C(Cl)CC2C1=O (centres undefined)
 : -0.2 | 0.25
O=C(N/N=C/c1c[nH]c2cnc(OCc3ccccc3)cc12)c1cccs1
 : -0.12 | x
CC1CCc2c(C(=O)O)csc2C1 (centres undefined)
 : 4.1 | -0.15
CC(=O)Nc1cc2c(O)c(c1)CCCCCCCCC2
 : -0.73 | x
Cn1c(NN)nc2ccccc21
 : 0.84 | 0
CC(C)c1ccc(NC(=O)CSc2nc3ccc(NC(=O)CSc4nnnn4C)cc3s2)cc1
 : 0.56 | x
NC(=O)c1nnc2cc(-c3ccccc3)nn2c1N
 : 0.3 | 0.25
O=C(Nc1ccccc1)c1cnn(-c2ccccc2)c1C1CCNCC1
 : 0.28 | -1
COc1ccc(CCN2C(=O)c3ccccc3C2(O)c2ncc[nH]2)cc1OC (centres undefined)
 : x | -0.4

As entered above.
For AID504770, Cn1c(NN)nc2ccccc21 has 0
For AID504770, CCOC(=O)CN1C(=O)C2CC=C(Cl)CC2C1=O (centres undefined) has 0.25
For CapD inh, O=C(Nc1ccccc1)c1cnn(-c2ccccc2)c1C1CCNCC1 has 0.28
For CapD inh, CC(=O)Nc1cc2c(O)c(c1)CCCCCCCCC2 has -0.73
For AID504770, NC(=O)c1nnc2cc(-c3ccccc3)nn2c1N has 0.25

Carrying on:
The line under a structure holds: CapD inh | AID504770
Cc1ccc(N=C2C(=O)Nc3ccccc32)c(C)c1
 : 0.1 | -0.3
O=c1ccc2ccc(Oc3nc(-c4cccnc4)nc4ccccc34)cc2o1
 : 1.3 | 0.15
CC(C)Oc1ccc2c(C(F)(F)F)cc(=O)oc2c1
 : -1.5 | -0.75
O=C(NNC(=O)c1ccc2nsnc2c1)c1ccoc1
 : 0.9 | x
CCOC(=O)/C=C1\SCC(=O)N1CC(=O)OCC
 : x | 0.3
COc1cc(OC)nc(C(c2ccccc2)N2CCN(CC(=O)N3CCOCC3)CC2)n1 (centres undefined)
 : -0.28 | x
CCOC(=O)c1c(NC(=O)CC2CCCC2)sc(C)c1C
 : 4.2 | -0.05
O=C(OCc1ccc(C#Cc2ccccc2)s1)N1CCN(c2ccccn2)CC1
 : 0.14 | x
CN(C)c1cccc(N(C)C)c1CNS(=O)(=O)c1cc(Cl)sc1Cl
 : -1.1 | -0.7
CCS(=O)(=O)c1ccccc1C(=O)Nc1sccc1C(=O)NC
 : x | -1.3
Cc1ccc(CSc2nc(N)cc(N)n2)cc1
 : x | -0.35
O=C(Oc1cccc2cccnc12)N1c2ccccc2Sc2ccccc21
 : -0.035 | 0.95
C=CCN1C(=O)C2(C(C#N)=C(N)Oc3c2c(=O)oc2ccccc32)c2ccccc21 (centres undefined)
 : 3.3 | -0.05
COc1ccccc1C(=O)N(Cc1cccs1)C1CCS(=O)(=O)C1 (centres undefined)
 : -0.52 | 0.1
O=C(OC/C=C/COCc1ccccc1)N1CCN(c2cccc(Cl)c2)CC1
 : 0.36 | x
O=C(Cc1nc2ccccc2[nH]1)c1cccs1
 : -1.2 | -1.7
CC12CCCCC1=NC(c1ccccc1O)N2O (centres undefined)
 : -0.5 | -1.1
COc1ccc2c(CC(=O)N3CCCSc4ccccc43)coc2c1
 : x | -0.6
CC1(C)Cc2c(sc3[nH]c(=S)n(-c4ccc(Br)cc4)c(=O)c23)CO1
 : -0.94 | x
NC(=S)Cc1nnc2n1CCCCC2
 : x | -0.5
CCOC(=O)Cn1c(=O)oc2cc(S(=O)(=O)N(CC)c3ccc(C)c(C)c3)ccc21
 : -0.23 | -0.35
CN(C)S(=O)(=O)c1cccc(CSc2nnc(-c3ccccc3Cl)n2C)c1
 : x | -0.75
COc1cccc(CC(=O)N2CCC(C(O)(c3ccccc3)c3ccccc3)CC2)c1
 : -0.05 | x
CC1CC1C(=O)OCc1ccc(Cl)cc1Cl (centres undefined)
 : 0.48 | -0.45
O=C(CSc1nc2c(sc3ccccc32)c(=O)n1-c1ccccc1)N1CCCC1
 : -0.075 | -0.5
COc1cc(-c2cc(-c3ccccc3)nc(SCC(=O)O)c2C#N)cc(OC)c1OC
 : 1.5 | x
COc1cccc(C(=O)/C=C\Nc2ccc(S(=O)(=O)Nc3nc(C)cc(C)n3)cc2)c1
 : 0.4 | x
COCc1nc2ccccc2n1CC(=O)N(c1ccccc1)C(C)C
 : -0.51 | -0.9
Cc1nn(-c2ccccc2)c2c1C1(C)CC(C)(O2)c2c(C)nn(-c3ccccc3)c2O1
 : 0.43 | 0.9
COc1ccc(C2=Nc3ccccc3SC(c3ccccc3)C2)cc1 (centres undefined)
 : -1.3 | 1.2
CCS(=O)(=O)c1ccc(O)c(NC(=O)CC(C)(C)CC(=O)O)c1
 : 0.03 | 0.95
Cc1cc(O)cc(C)c1Cl
 : 0.08 | -0.1
COC(=O)C12Nc3ccccc3NC(c3ccccc3)=C1C(=O)C(=O)N2c1ccc(C)cc1 (centres undefined)
 : -0.27 | x
CCOc1ccccc1CN(Cc1ccco1)S(=O)(=O)c1ccc(S(C)(=O)=O)cc1
 : 0.34 | x
O=C(O)c1ccccc1C(=O)N1CCN(Cc2ccncc2)CC1
 : 0.89 | -0.4

One compound at a time, from the list above. Order of values: CapD inh | AID504770
Entry for O=C(Oc1cccc2cccnc12)N1c2ccccc2Sc2ccccc21 : -0.035 | 0.95
Entry for CC(C)Oc1ccc2c(C(F)(F)F)cc(=O)oc2c1 : -1.5 | -0.75
Entry for Cc1ccc(S(=O)(=O)NNC2CS(=O)(=O)c3ccccc32)cc1 (centres undefined) : 0.39 | -0.85
Entry for O=C(Nc1ccc(N2CCCCC2)cc1)Nc1cccc(Cl)c1Cl : 0.15 | -0.45
